From PubChem
Cruzain noTriton – qHTS Assay for Promiscuous and Specific Inhibitors of Cruzain (without detergent) | purified cruzain, Z-FR-AMC fluorescence, no detergent | Potency, µM, for the others: max response, negative = inhibition, most hits filed as inhibitors | hit rate 2.3% among 200,000; active = well fitted curve in the direction sought with a large enough effect; inconclusive = small, poorly fitted or top-dose-only effect, or another doubt; inactive = no such curve, though single readings can be large; an effect the other way counts as inactive or inconclusive;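 note: plate controls were enzyme without inhibitor for no effect and buffer without enzyme for full effect; nearly all actives have a fitted effect of over 40% in size; top concentration of the series not given in the record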
Target sequence (P25779 123-467 limits assumed): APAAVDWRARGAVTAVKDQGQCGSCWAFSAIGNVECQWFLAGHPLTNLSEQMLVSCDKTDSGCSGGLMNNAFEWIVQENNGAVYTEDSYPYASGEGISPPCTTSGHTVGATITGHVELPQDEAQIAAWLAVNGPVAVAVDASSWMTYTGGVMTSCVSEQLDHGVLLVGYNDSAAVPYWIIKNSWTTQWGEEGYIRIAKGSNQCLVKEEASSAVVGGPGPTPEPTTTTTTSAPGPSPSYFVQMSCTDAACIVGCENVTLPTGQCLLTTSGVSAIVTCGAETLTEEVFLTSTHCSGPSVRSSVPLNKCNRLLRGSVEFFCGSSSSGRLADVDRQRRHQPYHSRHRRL
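Purified cruzain at 1.5 nM, pre-incubated 15 min with compound at room temperature in 100 mM sodium acetate pH 5.5, 5 mM DTT, 0.00005% Triton X-100. Reaction started with 2 uM Z-FR-AMC; AMC fluorescence increase over 60 s gives rate.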
MARV entry inh – qHTS for inhibitors of binding or entry into cells for Marburg Virus. Marburg virus pseudotyped entry inhibition, cell reporter; control for the full effect not named in the record; about a third of the inactives were read at about 46 µM. Potency, µM (top dose mostly 37.8 µM), without a hit: top-dose activity change, negative = inhibition, most hits filed as inhibitors. hit rate 1.8% among 300,000; active = well fitted inhibition curve with a large enough effect; inconclusive = small, poorly fitted or top-dose-only effect, or effect the other way; inactive = flat fitted curve, though single readings scatter; tested in HEK293 cells; about a fifth of its hits are not listed in these tables; note: % is set by controls: 0 for no effect and ±100 for the full control effect; luciferase read-out
NS1 inh – qHTS Assay for Inhibitors of Influenza NS1 Protein Function. S. cerevisiae slowed by influenza A NS1, growth recovery by OD600. Potency, µM (doses to about 46.1 µM), for inactives: top-dose activity, positive = more growth. hit rate 0.4% among 270,000. AID 2326, 2010; note: actives are rising curves; nearly all actives have a fitted effect of over 50% in size
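S. cerevisiae expressing influenza A NS1, grown in glucose, washed, then diluted 1:100 into pH 6.0 -URA galactose medium with 23 nl compound. Growth recovery read as OD600; NS1-free strain serves as control.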
Cruzain inh Det – qHTS Assay for Promiscuous and Specific Inhibitors of Cruzain (with detergent). Cruzipain (Trypanosoma cruzi), P25779. purified cruzain, Z-FR-AMC fluorescence, 0.01% Triton. Potency, µM, for inactives: max response, negative = inhibition, most hits filed as inhibitors. hit rate 0.43% among 200,000. AID 1478, 2009; active = well fitted curve in the direction sought with a large enough effect; inconclusive = small, poorly fitted or top-dose-only effect, or another doubt; inactive = no such curve, though single readings can be large; an effect the other way counts as inactive or inconclusive;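 note: plate controls were neutral wells for no effect and buffer without enzyme for full effect; nearly all actives have a fitted effect of over 40% in size; top concentration of the series not given in the record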
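Purified cruzain (1.5 nM final) was preincubated with compounds for 15 min at room temperature in 100 mM sodium acetate pH 5.5, 5 mM DTT, 0.01% Triton X-100. Reaction started with 2 uM Z-FR-AMC; AMC fluorescence change over 60 s gave activity.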
StopGo reporter – High Throughput Screening for Foot and Mouth Disease Virus Antivirals. human cells with a luciferase reporter of 2A StopGo recoding; control for the full effect not named in the record. Potency, µM (series often up to 57.9 µM), for the others: at the top dose signal change, negative = less light. hit rate 1.2% among 410,000; active = well fitted falling curve with a large enough effect; inconclusive = small, poorly fitted or top-dose-only effect; inactive = no such curve, though single readings can be large or run the other way; tested in HEK293T cells; note: % is set by controls: 0 for no effect and ±100 for the full control effect; nearly all actives have a fitted effect of over 45% in size; luciferase light after 4 h
LASV entry inh – qHTS for Inhibitors of binding or entry into cells for Lassa Virus | Lassa virus pseudotype entry inhibition, cell reporter; control for the full effect not named in the record | Potency, µM (top dose mostly 37.9 µM), for inactives: at the top dose activity change, negative = inhibition, hits mostly inhibitors | hit rate 1.2% among 300,000 | AID 540256, 2011; active means well fitted inhibition curve with a large enough effect; inconclusive means small, poorly fitted or top-dose-only effect, or effect the other way; inactive means flat fitted curve, though single readings scatter; tested in HEK293 cells; note: % is set by controls: 0 for no effect and ±100 for the full control effect; nearly all actives have a fitted effect of over 50% in size; luciferase read-out
RE007 growth inh – qHTS Assay for Inhibitors of the HIV-1 protein Vpr; S. pombe RE007 Vpr strain, BacTiter-Glo ATP luminescence, 24 h; control for the full effect not named in the record; Potency, µM (highest dose often 92.2 µM), inactives show at the top dose activity change, negative = less growth; hit rate 0.21% among 360,000; AID 651644, 2012; active = well fitted falling curve with a large enough effect; inconclusive = small, poorly fitted or top-dose-only effect; inactive = no such curve, though single readings can be large or run the other way;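 note: % is set by controls: 0 for no effect and ±100 for the full control effect; nearly all actives have a fitted effect of over 50% in size; the assay follows cell death caused by Vpr and the record does not say whether a fall means rescue or toxicity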
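Fission yeast RE007 carrying one integrated HIV-1 vpr copy, seeded at OD 0.01 in PMG+AL medium with 23 nL pinned compound. Grown 24 h at 30 degrees; viability read by BacTiter-Glo luminescence after 5 min.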
SARS PLP yeast – qHTS of Yeast-based Assay for SARS-CoV PLP. AID 485353, 2010. Potency, µM (highest dose often 32.9 µM), without a hit: at the top dose activity, positive = growth rescue. S. cerevisiae expressing SARS-CoV PLpro, growth rescue; control for the full effect not named in the record. hit rate 0.19% among 330,000; note: 0% is about no effect; nearly all actives have a fitted effect of over 55% in size; growth read by luminescence after 48 h
* = called active by the depositor; ? = inconclusive; / = no result given; & = joins results of further samples; [ ] = another dose, or the depositor's remark. Unless noted, calls come from the whole dose curve; as a rule, active means well fitted rising curve with a large enough effect; inconclusive means small, poorly fitted or top-dose-only effect; inactive means no such curve, though single readings can be large or run the other way. Potency is the fitted concentration of half-maximal effect.

SMILES	Cruzain noTriton	MARV entry inh	NS1 inh	Cruzain inh Det	StopGo reporter	LASV entry inh	RE007 growth inh	SARS PLP yeast
CCCn1nnnc1NCc1ccc(CC)cc1	/	2%[46.1 µM]	-5%	/	-9%	17%[46.1 µM]	-6%	-10%
Cc1cc(/C=C(\C#N)C(=O)O)c(C)n1-c1ccc(Br)cc1	/	/	3%	/	-8%	/	6%	0%
CCCN(CCC)C(=S)NC(=O)c1ccc(-c2ccccc2)cc1	-3%	?	23%	-4.5%	-2%	?	-24%	-27%
O=C(OCc1cc2ccccc2[nH]c1=O)c1cccnc1	?	12%[46.1 µM]	2%	0.1%	-4%	0%	16%	10%
COc1cc2ccccc2cc1C(=O)OCC(=O)N(C)c1c(N)n(Cc2ccccc2)c(=O)[nH]c1=O	/	?	/	/	-12%	0%	3%	-1%
COc1ccc(NC2CCCN(C(=O)CCC3=NNC(=O)CC3)C2)cc1 (configuration not stated)	/	12%	4%	/	-18%	11%	-1%	-2%
COc1cccc(N2CCN(C(=O)C(CCSC)NS(=O)(=O)c3ccc4c(c3)oc(=O)n4C)CC2)c1 (configuration not stated)	?	/	/	0.1%	-19%	2%[46.1 µM]	/	/
CC(C)(Cc1ccc(O)cc1)NC(=O)c1ccccc1	/	?	9%	/	-12%	?	1%	2%
CCn1c(SCC(=O)Nc2cc(C)on2)nnc1-c1ccc(OC)cc1	/	0%[46.1 µM]	3%	/	-21%	-8%	-3%	0%
Cc1cc(C)n(-c2ncc3c(n2)N(C)CCOC3=O)n1	/	-4%	4%	/	-1%	9%	2%	0%
CC1CCCN(S(=O)(=O)CCNC(=O)c2ccccc2)C1 (configuration not stated)	/	1%	/	/	-6%	-2%	-2%	-4%
CCc1nnc(NC(=O)c2ccc(S(=O)(=O)N3CCCCC3)cc2)s1	/	18%[46.1 µM]	6%	/	-6%	0%	3%	2%
Clc1c2c(nc3ccccc13)CCC2	/	/	2%	/	-8%	/	4%	7%
CCNC(=O)n1nccc1C(C)Oc1cccc(C(F)(F)F)c1 (configuration not stated)	3%	3%	-59%	-0.8%	-17%	11%	8%	-24%
Cc1nc2c(C(=O)N3CCCC3)cnn2c(C)c1Cc1c(F)cccc1Cl	-1%	-15%	1%	3.8%	16%	?	1%	4%
CCOCCCNC(=O)c1cc2cc3cc(OC)ccc3nc2o1	/	/	-10%	/	-7%	/	-16%	-4%
Cc1csc(NC(=O)C(NC(=O)c2ccccc2F)C(C)C)n1 (configuration not stated)	/	4%	/	/	-1%	0%	1%	0%
Cc1nnc(C)c2c(C)n(N)c(C)c12	/	/	0%	/	-5%	/	-2%	0%
CNC(=S)/N=C(/Nc1ccccc1)c1ccccc1	/	-4%[46.1 µM]	/	/	-26%	-15%[46.1 µM]	-5%	?
Cc1ccc(Sc2ncnc3onc(C)c23)c(C)c1	/	/	3%	/	-28%	/	5%	0%
COc1cc(CNn2nnnc2N)cc(Br)c1OCc1c(Cl)cccc1Cl	0%	?	7%	-7.8%	?	?	7%	-6%
Cc1ccsc1C(=O)OCC(=O)c1cc(C)n(CC2CCCO2)c1C (configuration not stated)	-6%	?	-10%	2.3%	100µM*	2.6µM*	-23%	-9%
O=C(CN1C(=O)S/C(=C/c2cccn2-c2ccc(O)cc2)C1=O)N1CCCC1	/	0%[46.1 µM]	14%	/	10%	-14%[46.1 µM]	17%	-1%
CCC(CC)C(=O)Nc1cccc(C(=O)Nc2ccc(OC)cc2[N+](=O)[O-])c1	0%	-19%	-9%	4.2%	8%	-24%	3%	2%
CC1(NC(=O)Cc2ccc(S(=O)(=O)N3CCOCC3)s2)CCS(=O)(=O)C1 (configuration not stated)	/	?	/	/	-9%	23%	-7%	-4%

Compound profiles (already shown). Order of screens: Cruzain noTriton	MARV entry inh	NS1 inh	Cruzain inh Det	StopGo reporter	LASV entry inh	RE007 growth inh	SARS PLP yeast
Cc1cc(C)n(-c2ncc3c(n2)N(C)CCOC3=O)n1 as listed: /	-4%	4%	/	-1%	9%	2%	0%
CCC(CC)C(=O)Nc1cccc(C(=O)Nc2ccc(OC)cc2[N+](=O)[O-])c1 as listed: 0%	-19%	-9%	4.2%	8%	-24%	3%	2%

Later entries:
SMILES	Cruzain noTriton	MARV entry inh	NS1 inh	Cruzain inh Det	StopGo reporter	LASV entry inh	RE007 growth inh	SARS PLP yeast
CC1=C(C(N)=O)C(c2ccc(Cl)cc2Cl)n2ncnc2N1 (configuration not stated)	9%	-8%	0%	3.7%	1%	8%	25%	9%
COc1ccc(N2CCN(C(=O)CCCCCn3c(=S)[nH]c4cc5c(cc4c3=O)OCO5)CC2)cc1	/	/	10%	/	-5%	/	2%	0%
Cn1cc(CCCC(=O)NCc2cccc(Br)c2)c2ccccc21	-23%	/	/	-1.7%	-4%	-4%[46.1 µM]	/	/
CC(C)CN1C(=O)/C(=C(/C#N)C(=O)NC2CCCCC2)c2ccccc21	/	?	/	/	5%	?	0%	-2%
CC(C)C(C)(C#N)NC(=O)CSc1nc2scc(-c3ccc(F)cc3)c2c(=O)n1Cc1ccccc1 (configuration not stated)	?	?	?	-5.4%	-18%	?	7%	29%
CC(C)n1c(O)c(N=Nc2ccccn2)c2ccccc21	0%	26%	17%	-5.0%	-14%	18%	12%	8%
O=C(CCCCCn1c(=O)[nH]c2ccccc2c1=O)NCc1ccc(Cl)cc1	1%	/	/	1.6%	-18%	9%[46.1 µM]	/	/
CCCc1c(C(=O)Nc2ccc(N3CCOCC3)cc2)cnn1-c1ccccc1	/	-2%[46.1 µM]	0%	/	-21%	?	2%	-2%
CCCCNC(=O)COC(=O)c1ccc(SC)cc1OC	/	-3%[46.1 µM]	-4%	/	11%	-19%	-21%	-4%
O=C(O)CN1C(=O)C(=O)N(Cc2c(F)cccc2Cl)C1=O	/	/	4%	/	-17%	/	3%	0%
O=C(O)c1cc(-c2ccncc2)nc2ccc(F)cc12	1%	-3%	3%	5.3%	/	/	/	-2%
c1ccc(-c2ncc3ccccn23)cc1	/	12%[46.1 µM]	7%	/	11%	11%	-17%	0%
CCCCNC(=S)NNC(=O)c1csc(C(C)C)c1	-13%	?	-4%	0.2%	54%[activator]	-1%	-6%	?
Cc1cccc(NC(=O)CSc2nc3ccccc3c3nc(CCc4c(C)n[nH]c4C)nn23)c1	?	18µM*	?	-1.2%&-5.0%	?	?	6%	2%
CCOc1ccc(NC(=O)CC(Cc2cc(C)cc(C)c2)C(=O)O)cc1 (configuration not stated)	/	-23%	8%	/	4%	3%	5%	-1%
CCOc1ccc(S(=O)(=O)Nc2cccnc2)cc1	2%	0%[46.1 µM]	-46%	1.2%	7%	4%	0%	1%
O=CNc1ccc(S(=O)(=O)NCc2ccccc2)cc1	1%	?	6%	1.7%	-9%	5%	9%	-5%
COc1ccc2nc(SCC(=O)Nc3c(C)cc(C)cc3C)[nH]c2c1	-12%	27%	7%	-12%	-22%	-2%	1%	-3%
COc1ccc(NC(=O)c2cc3c(s2)-c2c(C)cccc2OC3)cc1Cl	11%	?	/	-1.4%	0%	/	/	/
Cc1ccc(OCCCC(=O)Nc2ccc(S(=O)(=O)Nc3ccccn3)cc2)cc1	/	-15%[46.1 µM]	-4%	/	-2%	17%[46.1 µM]	10%	0%
CC(C)C[C@H](NC(=O)C1CCN(S(=O)(=O)c2ccccc2)CC1)C(=O)NCc1ccncc1	/	7%[46.1 µM]	-8%	/	-4%	-5%[46.1 µM]	-11%	2%
c1ccc2c(c1)CCN(c1nc3ccccc3n3cnnc13)C2	9%	/	-79%	-11%	10%	/	-7%	-7%
Cc1noc(NS(=O)(=O)c2ccc(NC(=O)CSc3nnc4c(n3)[nH]c3ccccc34)cc2)c1C	7%	0%	-7%	?	-14%	-1%	-1%	5%
CSC(=O)NC12CC3CC(CC(C)(C3)C1)C2	-2%	-17%&-17%	-8%	-2.5%	-4%	5%	0%	1%
COC1CCN(C(=O)CC2C(=O)NCCN2CC2CCCCC2)CC1 (configuration not stated)	/	1%[46.1 µM]	2%	/	0%	-19%[46.1 µM]	-10%	1%
(more compounds)
SMILES	Cruzain noTriton	MARV entry inh	NS1 inh	Cruzain inh Det	StopGo reporter	LASV entry inh	RE007 growth inh	SARS PLP yeast
CCN1CCN(c2ccc(S(=O)(=O)N3CCOCC3)cc2NC(=O)c2ccc(Cl)s2)CC1	/	-4%	/	/	-22%	6%	1%	-2%
COc1ccccc1-c1ccc(SCc2ccc(C)cc2)nn1	/	?	/	/	24%	-15%	-28%	-1%
Cc1sc(NC(=O)c2ccccc2)c(C(=O)N2CCN(C)CC2)c1C	-13%	?	8%	2.2%	-19%	6%	-14%	0%
CCOC(=O)CC1C(=O)NCCN1S(=O)(=O)c1ccc(Cl)cc1 (configuration not stated)	-2%	-12%	3%	2.8%	-23%	-3%	-7%	-10%
Cc1cccc(CC2SC(N3CCN(c4ccccc4)CC3)=NC2=O)c1 (configuration not stated)	-1%	1%	-17%	-26%	-11%	-17%	12%	7%
Cc1ccc(C(=O)OCC(=O)NCCc2ccc(S(N)(=O)=O)cc2)o1	/	4%	/	/	-6%	15%	35%	10%
O=C(NCc1ccccc1)Nc1cccn(Cc2ccccc2)c1=O	-4%	0%&0%	3%	-3.2%	0%	?	2%	13%
O=C(COC(=O)c1cccs1)NCc1ccc2c(c1)OCO2	-11%	12%	-6%	2.8%	49%[activator]	?	-15%	-5%
COc1ccc(-c2nc(CCNS(=O)(=O)c3ccc4c(c3)OCCO4)cs2)cc1	-1%	/	-19%	-10%	10%	/	-8%	-16%
CCCCn1c(=S)[nH]c2c(oc3ccc(Cl)cc32)c1=O	?	/	-7%	1.4%	/	/	/	7%
CC(=O)N1c2c(ccc3ccccc23)C(C)CC12CCCCC2 (configuration not stated)	12%	?	-66%	-13%	?	3%	-4%	-28%
CC1(O)C[C@]2(C)N(O)C3CCCC[C@@H]3N2O1 (some centres not stated)	2%	-1%	-9%	-0.6%	-3%	-3%	1%	3%
